gsp ag: agonists of gsp mutant (McCune-Albright syndrome). gsp mutant cells, cAMP HTRF, 30 min; control for the full effect not named in the record. hit rate 0.13% among 340,000. Potency, µM (top dose mostly 76.9 µM), without a hit: at the top dose activation (cAMP increase), hits mostly activators. AID 624287; active = well fitted activation curve with a large enough effect; inconclusive = small, poorly fitted or top-dose-only effect, or another doubt; inactive = no such curve, though single readings can be large or run the other way; cell line not stated here;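 note: phosphodiesterase inhibitor Ro 20-1724 added with compounds to block cAMP breakdown; potency is the fitted concentration of half-maximal effect; nearly all actives have a fitted effect of over 60% in size; about a fifth of the inactives were tested at one dose only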
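Cells stably selected in G418 were plated at 2000/well, grown 16-24 hr, then given compounds in DMSO with the PDE inhibitor […] (300 uM solution added) for 30 min at 37C; cAMP was read by HTRF.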
Sfp inh: Sfp phosphopantetheinyl transferase inhibition; Biochemical Sfp PPTase activity, qHTS; hit rate 3.5% among 310,000; Q9F4F7; Potency, µM, inactives show max response, negative = inhibition, hits mostly inhibitors; active = well fitted inhibition curve with a large enough effect; inconclusive = small, poorly fitted or top-dose-only effect, or another doubt; inactive = no such curve, though single readings can be large or run the other way;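 note: the enzyme is Sfp with the accession as filed and its product quenches rhodamine fluorescence; potency is the fitted concentration of half-maximal effect; 0% = enzyme reaction without inhibitor and -100% = no enzyme wells; top concentration of the series not given in the record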
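Buffer: 50 mM Hepes-Na pH 7.6, 10 mM MgCl2, 0.01% Nonidet P-40, 0.01% BSA. Enzyme 15 nM, pre-exposed to compound 15 min; substrates then added and fluorescence change tracked over 30 min.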
CtBP-E1A inh: CtBP/E1A binding inhibition. AlphaScreen GST-E1A/His-CtBP binding, 1536-well; hits give low values; control for the full effect not named in the record. activity change, % (test concentration not listed). hit rate 0.49% among 340,000; in the data active means activity change below about -65%; inconclusive means about -30% to -65%; inactive means above about -30%; note: % is set by controls: 0 for no effect and ±100 for the full control effect; compound concentration not given in the record
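AlphaScreen with 125 nM GST-E1A and 125 nM His-CtBP (5X stocks) in Tris pH 8.0, 300 mM NaCl, BSA, Tween 20, TCEP. Compounds preincubated 2 h at 37 deg C, then glutathione donor/nickel acceptor beads added for 1 h at 37 deg C in dark.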
TRPV1 potentiator: enhances activation of the human vanilloid receptor TRPV1. TRPV1-expressing cells, Fluo-8 calcium influx, capsaicin EC20 potentiation; host cell line not named in the record; control for the full effect not named in the record. potentiation, % at 8.33 µM. hit rate 0.02% among 320,000; active means potentiation above 80%; inconclusive means 30% to 80%; inactive means below 30%; note: 0% is about no effect
Target sequence (Q8NER1 whole entry, looked up): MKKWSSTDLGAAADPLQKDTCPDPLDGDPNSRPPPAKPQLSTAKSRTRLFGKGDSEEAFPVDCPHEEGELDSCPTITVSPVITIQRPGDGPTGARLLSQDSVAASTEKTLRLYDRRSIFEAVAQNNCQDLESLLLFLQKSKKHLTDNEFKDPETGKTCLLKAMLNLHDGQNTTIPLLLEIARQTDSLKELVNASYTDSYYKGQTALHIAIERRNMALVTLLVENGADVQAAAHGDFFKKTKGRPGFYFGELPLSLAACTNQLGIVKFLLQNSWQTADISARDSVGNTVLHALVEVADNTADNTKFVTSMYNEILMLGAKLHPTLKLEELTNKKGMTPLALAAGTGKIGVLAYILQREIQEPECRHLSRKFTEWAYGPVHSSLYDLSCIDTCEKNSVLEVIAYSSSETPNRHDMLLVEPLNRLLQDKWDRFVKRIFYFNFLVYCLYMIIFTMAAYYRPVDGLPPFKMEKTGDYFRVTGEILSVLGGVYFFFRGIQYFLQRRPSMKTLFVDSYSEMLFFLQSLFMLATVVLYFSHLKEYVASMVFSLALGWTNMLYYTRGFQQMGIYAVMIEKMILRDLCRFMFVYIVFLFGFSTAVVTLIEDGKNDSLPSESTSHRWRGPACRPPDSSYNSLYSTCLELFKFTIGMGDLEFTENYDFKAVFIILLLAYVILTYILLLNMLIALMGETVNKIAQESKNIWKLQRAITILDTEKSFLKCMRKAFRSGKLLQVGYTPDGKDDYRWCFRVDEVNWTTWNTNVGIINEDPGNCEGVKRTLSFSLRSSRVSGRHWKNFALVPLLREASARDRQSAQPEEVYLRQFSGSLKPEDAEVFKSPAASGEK
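Cells expressing TRPV1 were dye-loaded with Fluo-8 and read kinetically: 10 s baseline, 3 min after compound (agonist portion), then 2 min after EC20 capsaicin (allosteric enhancer portion). Calcium-bound dye fluorescence at 480/520 nm.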
ClpP mod: qHTS Assay for Activators of ClpP; ATP-dependent Clp protease proteolytic subunit (Bacillus subtilis (strain 168)), P80244; hit rate 1.9% among 340,000; purified B. subtilis ClpP, FRET peptide cleavage, 20 min; Potency, µM (titrated, usually from 57.5 µM), for inactives: top-dose activity change, negative = active; AID 651965, 2013; active = well fitted falling curve with a large enough effect; inconclusive = small, poorly fitted or top-dose-only effect; inactive = no such curve, though single readings can be large or run the other way; note: potency is the fitted concentration of half-maximal effect; the source files actives as falling curves though it sought activators and does not explain the sign; nearly all actives have a fitted effect of over 65% in size; many hits overshoot -100%
Target sequence (P80244 whole entry, looked up): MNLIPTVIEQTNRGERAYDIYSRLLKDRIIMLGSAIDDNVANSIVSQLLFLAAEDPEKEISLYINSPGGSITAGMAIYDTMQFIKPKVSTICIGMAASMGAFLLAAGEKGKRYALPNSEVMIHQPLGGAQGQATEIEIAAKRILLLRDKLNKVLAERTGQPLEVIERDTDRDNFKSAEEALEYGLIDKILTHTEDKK
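Buffer: 100 mM Tris/HCl pH8, 100 mM KCl, 0.05% low protease BSA, 2.5% glycerol, 0.01% Tween-20. ClpP 10 microg/mL final; 20 min RT; delta FRET normalized to ADEP and DMSO controls.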
Menin-MLL FL inh: menin-MLL binding inhibition, fluorescein peptide; Fluorescence polarization, fluorescein-MLL peptide displacement from menin; FP activity change, % at 61.4 µM; 290,000 tested, under 10 active; AID 1766; inconclusive = falling polarisation curve, or a change in total fluorescence; inactive = total fluorescence flat and polarisation flat or rising; no compound was filed as active; the % refers to the polarisation; negative = inhibition;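 note: % of control where 0% means no effect; inhibitors lower the polarisation; unlabelled MLL peptide was the positive control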
gsp antagonist: antagonists of gsp mutant (McCune-Albright syndrome); gsp-mutant cells, cAMP HTRF, 30 min; control for the full effect not named in the record; Potency, µM (series often up to 76.9 µM), inactives show top-dose activity change, negative = inhibition, usual class: inhibitors; hit rate 0.4% among 340,000; AID 624288; active = falling curve of any shape with a large fitted effect; inconclusive = falling curve, mostly with a smaller effect; inactive = flat or rising curve; cell line not stated here;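 note: intracellular cAMP measured with PDE inhibitor Ro 20-1724 present during compound exposure; potency is the fitted concentration of half-maximal effect; % is set by controls: 0 for no effect and ±100 for the full control effect; nearly all actives have a fitted effect of over 65% in size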
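HTRF cAMP measurement after 30 min RT detection following 30 min, 37C compound treatment alongside […] (added as 300 uM solution) in G418-selected cells seeded at 2000/well and grown 16–24 h.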
Numbers without * were called inactive; ? = inconclusive; · = not tested or not shown; & = joins results of further samples; [ ] = remark or other dose.

SMILES	gsp ag	Sfp inh	CtBP-E1A inh	TRPV1 potentiator	ClpP mod	Menin-MLL FL inh	gsp antagonist
Nc1cc(=O)[nH]c(SCC(=O)Nc2ccc(N3CCCCC3)cc2)n1	-33%[inhibitor]	·	5	·	-0.6%	·	-11%
CCOC(=O)c1cnc2c(-c3ccc(Cl)cc3)c(C)nn2c1N	-4%	22%	-1	3	26%	3.2	12%
Cc1cc(OCC(F)(F)C(F)(F)C(F)(F)C(F)F)nc(N)n1	-56%[inhibitor]	14%	3	11	0.3%	-1.9	-2%
Cc1cccc(N2CCN(C(=O)c3ccccc3SCC(=O)N3CCCC3)CC2)c1C	-2%	·	-17	-23	-4.5%	·	-33%
COc1ccc(N2CCN(C(=O)CSc3ccc([N+](=O)[O-])cc3)CC2)cc1	2%[15.4 µM]	3%	-13	-13	·	3.3	-9%
COCCN(C)C(=O)CCc1nnc(Cc2ccc(-c3ccccc3)cc2)o1	4%	10%	·	-16	-3.1%	-3.0	2%
CCC(=O)N(Cc1ccc2c(c1)OCO2)Cc1cc2cc(OC)ccc2[nH]c1=O	0%	7%	2	10	-20%	5.1	-6%
O=c1[nH]c(CN2CCCCC2)ccc1O	5%	·	-4	·	-5.2%	·	·
COc1ccc(C(CNC(=O)COc2cc(C)c(Cl)c(C)c2)N2CCCCC2)cc1 (stereo not given)	9%	-6%	0	-5	0.6%&0.6%	?	5%
CCC(CC)CN1C(N(C)C)=NC[C@@H]1CC(C)C	·	·	0	26	-2.6%	·	-8%
CCNC(=O)NC(=O)C(C)OC(=O)c1cccn1C (stereo not given)	-120%[inhibitor]	12%	·	?	-0.7%	-2.9	7%
O=C(c1ccc(S(=O)(=O)N2CCCCC2)cc1)N1CCN(Cc2ccc3c(c2)OCO3)CC1	16%	16%	-3	3	-4.4%	-0.6	-3%
CCOC(=O)c1c(-c2ccc(OC)cc2)csc1/N=C/N(C)C	?	4%	4	-10	1.1%	2.2	-20%
CC(C)N(C(=O)Cn1c(SCC(=O)NCc2ccc3c(c2)OCO3)nc2ccccc21)C(C)C	?	4%	-5	6	0.9%	1.5	-10%
CC1CCCN(C(=O)COC(=O)CSc2ccc(C(N)=O)cc2[N+](=O)[O-])C1 (stereo not given)	5%[15.4 µM]	·	5	1	·	·	-7%
CN1CCN(C2=C(NS(=O)(=O)c3ccccc3)C(=O)c3ccccc3C2=O)CC1	?	-11%	-10	?	1.1%	-7.3	-19%
CC(C)(C)C(=O)Nc1nnc(Cc2ccccc2)s1	-41%	13%	0	-8	-3.4%	2.7	4%
CCNC(=S)N1CCN(c2nc(-c3ccc(F)cc3)cs2)CC1	-16%	5%	-6	-3	-1.3%	-2.3	35µM*
CCSc1nc(N)c(C#N)c(-c2ccco2)c1C#N	4%	5%	?	6	?	-0.6	-5%
CC(=O)c1sccc1NC(=O)CC(C)(C)CC(=O)O	20%[15.4 µM]	12%	4	-6	·	-1.5	-6%
Cc1ccc(S(=O)(=O)N[C@H](C(=O)OCC(=O)NC(=O)NCc2ccco2)C(C)C)cc1	9%	·	-3	·	·	·	-11%
Fc1ccccc1/C=N/Nc1ncnc2nc[nH]c12	5%	-14%	-1	-2	-3.1%	3.1	-7%
N#Cc1ccccc1S(=O)(=O)N1CCN(CC(O)COc2ccccc2F)CC1 (stereo not given)	-5%[15.4 µM]	56µM*	7	1	0.7%	-13	-14%
O=C(O)CC/C(=N\NC(=O)c1ccccc1)c1cccs1	-8%[15.4 µM]	4%	12	-12	·	0.8	-3%
COc1ccc(-n2cnnc2SCC(=O)N2CCN(S(=O)(=O)c3ccccc3)CC2)cc1	?	-8%	-2	12	-1.9%	3.5	-7%
COc1ccc(N2CCN(C(=O)CSc3nnc(CNc4ccccc4)o3)CC2)cc1	-24%	17%	-5	4	-2.0%	3.9	-14%
NS(=O)(=O)c1ccc(N/N=C/c2ccccc2C(=O)O)c([N+](=O)[O-])c1	7%[15.4 µM]	-2%	3	28	·	2.1	-2%
O=C(c1ccc2nc(Cc3ccccc3F)oc2c1)N1CCCC1	28%	11%	0	0	0.6%	·	7%
CCOC(=O)N1CCc2c(sc3c2c(=O)n(-c2ccc(CC)cc2)c(=O)n3CC(=O)NCC2CCCO2)C1 (stereo not given)	5%	-13%	·	-2	-3.0%	·	-6%
COCCNC(=O)C(c1ccc(Cl)cc1)N(Cc1ccco1)C(=O)CCC(=O)Nc1ccccn1 (stereo not given)	6%[15.4 µM]	18%	-9	-4	-1.1%	-0.7	5%

One compound at a time (already shown). Order of values: gsp ag	Sfp inh	CtBP-E1A inh	TRPV1 potentiator	ClpP mod	Menin-MLL FL inh	gsp antagonist
Shown for O=c1[nH]c(CN2CCCCC2)ccc1O : 5%	·	-4	·	-5.2%	·	·
Shown for COc1ccc(N2CCN(C(=O)CSc3ccc([N+](=O)[O-])cc3)CC2)cc1 : 2%[15.4 µM]	3%	-13	-13	·	3.3	-9%

The listing continues.
SMILES	gsp ag	Sfp inh	CtBP-E1A inh	TRPV1 potentiator	ClpP mod	Menin-MLL FL inh	gsp antagonist
COc1ccc(C(=O)O/N=C2\CCS(=O)(=O)c3sccc32)cc1	6%	12%	1	-1	-1.7%	-0.8	7%
CN(CC(=O)Nc1ccccc1Cl)C(=O)COC(=O)c1ccccc1[N+](=O)[O-]	?	·	6	-5	-0.4%	·	13%
CNc1nc(OC)nc(N(C#N)CN2C(=O)c3ccccc3S2(=O)=O)n1	12%[15.4 µM]	-14%	·	4	·	-5.9	-5%
Cc1[nH]c(=O)[nH]c(=O)c1S(=O)(=O)N1CCC(C(=O)NC(C)c2ccccc2)CC1 (stereo not given)	-3%[15.4 µM]	2%	6	6	0.5%	4.4	10%
Cc1nc(NC2=NCN(Cc3ccc4c(c3)OCO4)CN2)nc2ccccc12	·	5%	·	-11	·	3.4	·
Nc1nc(SCc2ccccc2)n[nH]1	?	?	3	-8	·	0.4	13%
O=C(Cc1ccccc1F)c1ccc(O)cc1O	5%[15.4 µM]	24%	21	-5	·	2.3	-7%
O=C(NCC(=O)N1CCC2(CC1)NCCc1[nH]cnc12)c1ccc2ccccc2c1	1%	18%	-2	2	-13%	·	15%
O=C(N/N=C/c1cccnc1)c1ccc(O)cc1	-9%	9%	-8	-19	·	-2.5	-2%
C#CCOCCOCCOCCNc1nc(N2CCN(C(=O)Cn3cc(CCCCN)nn3)CC2)nc(N2CCN(C(=O)[C@H]([C@@H](C)CC)n3cc(CCCN=C(N)N)nn3)CC2)n1	·	·	0	-2	1.3%	·	2%
CCC1(c2ccccc2)NC(=O)N(CC(=O)Nc2ccc3c(c2)OCO3)C1=O (stereo not given)	?	11%	-3	15	1.5%	1.1	2%
O=C1C(C=Nc2ccccc2)=C(O)c2ccccc21	1%	2%	3	-7	1.0%	0.2	-6%
CN1CCN(c2ccccc2NC(=O)c2ccc(-c3ccc(Br)cc3)o2)CC1	20%	-9%	1	0	18%	·	17%
COc1ccccc1N1CCN(C2CC(=O)N(c3ccc(F)cc3)C2=O)CC1 (stereo not given)	-5%	5%	6	28	-2.8%	3.8	-18%
O=C(c1ccc(F)cc1)N1CCC(C(=O)N2CCN(c3ncccn3)CC2)CC1	-50%[inhibitor]	·	2	·	?	·	-1%
COc1ccccc1NC(=O)COc1ccc(-c2nn(C)c(=O)c3ccccc23)cc1	23%[15.4 µM]	2%	3	9	-23%	·	28µM*
Nc1nc(-c2ccc3c(c2)OCCO3)c(CC(=O)O)s1	14%[15.4 µM]	-20%	2	9	-1.6%	14	9%
COc1cc(OC)nc(Oc2cccc(C(F)(F)F)c2)n1	10%[15.4 µM]	19%	-1	-3	-3.6%	-0.1	-1%
Cc1ccc(NC(=O)CN2C(=O)C3CC=C(Cl)CC3C2=O)cc1 (stereo not given)	-3%	11%	6	5	·	8.2	-1%
Cn1ncc(Cl)c1C(=O)N/N=C/c1cccc(OC2CSC2)c1	-25%[15.4 µM]	7%	0	-4	-1.2%	0.8	-3%
CCOC(=O)C1=C(N)OC2=C(C(=O)CCC2)C1c1ccccc1OCC (stereo not given)	-17%	1%	2	-14	0.7%	-2.7	-7%
CC(CC(=O)NCc1ccccc1)C1CCCO1 (stereo not given)	2%	12%	6	1	-0.1%	4.8	8%
CSCCC(NC(=O)c1ccccc1Cl)C(=O)N1CC(C)OC(C)C1 (stereo not given)	-19%	·	0	-5	-2.3%	·	3%
CC(=O)Nc1ccc(S(=O)(=O)Nc2ccc(NC(=O)c3ccco3)cc2)cc1	8%	-5%	-7	?	-0.2%	-1.2	-6%
COCc1[nH]nc2c1C(c1cccc(OC)c1)C(C#N)=C(N)O2 (stereo not given)	2%	-7%	-2	-3	-0.2%	0.2	9%
CCOC(=O)C1=C(C)NC(=S)NC1C (stereo not given)	18%	2%	3	5	·	0.9	0%
CN(C)c1nc(C(F)(F)F)cc(=O)[nH]1	-15%	13%	-4	0	·	-5.6	11%
Cc1ccc(C2(CC(=O)O)CCOC(C)(C)C2)cc1 (stereo not given)	-3%	32%[activator]	7	1	-0.5%	0.1	-6%
C=CC[C@@H](Cc1ccc(F)cc1)C(=O)OC[C@@H]1CCCN1C(=O)[C@H](CC=C)CC(=O)N[C@H](CO)Cc1ccccc1	·	·	0	·	3.1%	·	-20%
Fc1ccc(NCc2nnc(SCc3nnc(-c4ccccc4)o3)n2Cc2ccccc2)cc1	14%	-10%	-3	-3	0.2%	0.2	?
Cc1cc(C)c(S(=O)(=O)c2ccccc2)c(OC(=O)c2cc(F)c(F)cc2Cl)n1	-5%	10%	5	0	-3.6%	3.5	-8%
COc1ccc(S(=O)(=O)N(CC(=O)Nc2ccc(S(=O)(=O)N3CCOCC3)cc2)c2ccccc2)cc1	6%	28%	-3	-21	-4.0%	0.4	-10%
CCCC[C@@H]1CCCO[C@@](C(=O)NCc2cc(C)n(C)n2)(C(F)(F)F)C1	·	4%	0	·	1.1%	3.7	-5%
CC(C)C[C@H](NC(=O)c1cc2cc(Cl)ccc2n1C)C(=O)N1CCC[C@H]1C(=O)O	·	10%	-1	15	5.0%	-0.4	6%
O=C(c1ccccc1)c1nc2ccccc2n(CCCn2c(=O)c(C(=O)c3ccccc3)nc3ccccc32)c1=O	-27%	22%	-14	-5	-4.9%	2.2	-1%
Cn1c(SCC(=O)NC2CC2)nnc1-c1ccccc1	0%	20%	1	1	-1.2%	·	8%

Screening data (PubChem BioAssay)

Random draw from the library; overall some 5.3% were active at least once.
